2A firefly: FMDV 2A StopGo reporter, firefly signal | AID 1745856 | HEK cells with a luciferase reporter of 2A StopGo recoding | 0.23% of 120,000 active | Potency, µM (top dose mostly 57.5 µM), for the others: at the top dose signal change, negative = less light; active = well fitted falling curve with a large enough effect; inconclusive = small, poorly fitted or top-dose-only effect; inactive = no such curve, though single readings can be large or run the other way; also: nearly all actives have a fitted effect of over 60% in size; overnight with compound
2A Renilla: FMDV 2A StopGo reporter, Renilla signal; Potency, µM (highest dose often 57.5 µM), inactives show top-dose signal change, negative = less light; 0.32% of 120,000 active; HEK cells with a luciferase reporter of 2A StopGo recoding; active means well fitted falling curve with a large enough effect; inconclusive means small, poorly fitted or top-dose-only effect; inactive means no such curve, though single readings can be large or run the other way; also: nearly all actives have a fitted effect of over 55% in size; overnight with compound
* = called active by the depositor; ? = inconclusive; & = joins results of further samples; [ ] = remark or other dose. % is scaled to controls: 0 for no effect and ±100 for the full control effect; potency is read from the fitted curve at half-maximal effect. Not all compounds are listed. The share of hits here may be higher or lower than overall.

SMILES	2A firefly	2A Renilla
Cc1cc(NC(=O)c2cc(-c3ccc(F)cc3)on2)no1	1.3%	-2.7%
COC(=O)C1CN(Cc2ccc(F)cc2)CCS(=O)(=O)N1Cc1cn(Cc2ccccc2)nn1 (stereo not given)	1.7%	23.0%
CC(C)NC(=O)C(C)Sc1nnc(NC2CC2)s1 (stereo not given)	12.3%	7.4%
CCc1cccc(C)c1NC(=O)Cn1ccn(-c2ccc(F)cc2)c(=O)c1=O	-8.3%	9.0%
COc1cc(/C=C/c2nc(C#N)c(NC3CCCCC3)o2)cc(OC)c1OC	50.2%[activator]	59.9%[activator]
CC(C)CCNC(=O)C1(C)CCC(=O)N1Cc1ccccc1Cl (stereo not given)	13.1%	45.3%[activator]
Cc1nc2ccccc2nc1SCC(=O)N1CCC(C)CC1	?	?
Cc1nnc(N2C(=O)C(=O)/C(=C(/O)c3ccccc3)C2c2ccc(C(C)C)cc2)s1 (stereo not given)	145.1%[activator]	-2.5%
CNC(=O)Nc1ccc(NC(=O)c2cc3ccc(OC)cc3nc2C)cc1	1.4%	-9.1%
COc1ccc(C)cc1NC(=O)Cn1nc(N2CCN(c3ccccc3OC)CC2)ccc1=O	6.7%	6.5%
COC(=O)[C@H](C(C)C)N(CCCc1cn(CC2CCCCC2)nn1)S(=O)(=O)c1ccccc1Br	5.2%	4.2%
COc1ccccc1-c1nc2c(c(SCc3cc(C)ccc3C)n1)Cc1c(CO)cnc(C)c1O2	-6.1%	-14.3%
CC(=O)Nc1nonc1-c1nnc(SCC(=O)Nc2ccc(C)c(Cl)c2)n1C	2.4%	12.0%
COCCn1c(C)cc(C(=O)CSc2nnc(CN3CCCC3)n2-c2ccccc2)c1C	3.7%	-12.2%
COc1cc(OC)cc(C(=O)Nc2cc(-c3nc4ccccc4[nH]3)ccc2C)c1	117.9%[activator]	22.2%
COC(=O)c1cc(S(=O)(=O)NCC2CCN(Cc3ccc(F)cc3)CC2)cn1C	1.0%	1.9%
Cc1c(-c2ccccc2)oc2c(C(=O)N3CCCN(Cc4ccc(F)cc4)CC3)cccc2c1=O	-20.8%	61.7%[activator]
COC(=O)c1c(C)sc2c1OC(N)=C(C#N)C21C(=O)N(Cc2cccc(F)c2)c2ccccc21 (stereo not given)	-3.8%	29.7%
Cc1cc(C)c2ccc3ccccc3c2n1	83.1%[activator]	-0.8%
COc1ccc(CCNc2oc(CC(C)C)nc2C#N)cc1OC	12.4%	-10.0%
Cc1ccc(-n2nc(C(=O)Nc3ccc(C)c(F)c3)c(=O)n(C)c2=O)cc1	-4.1%	-8.2%
Cc1cccc(NC(=O)NCc2c(C)nn(C)c2C)c1C	0.0%	-4.0%
COc1ccc2cc(C3(C)NC(=O)N(Cc4coc(-c5cccs5)n4)C3=O)ccc2c1 (stereo not given)	?	?
COC(=O)c1ccc(NC(=O)CSc2ccc(-c3cccs3)nn2)cc1	1.0%	7.4%
CCC(C)NC(=O)CCSc1nc(-c2ccc(OC)cc2)cc(C(F)(F)F)n1 (stereo not given)	-18.2%	-7.5%

Some of the entries so far, field by field.
COCCn1c(C)cc(C(=O)CSc2nnc(CN3CCCC3)n2-c2ccccc2)c1C
- 2A firefly: 3.7%
- 2A Renilla: -12.2%
CC(=O)Nc1nonc1-c1nnc(SCC(=O)Nc2ccc(C)c(Cl)c2)n1C
- 2A firefly: 2.4%
- 2A Renilla: 12.0%
COC(=O)c1cc(S(=O)(=O)NCC2CCN(Cc3ccc(F)cc3)CC2)cn1C
- 2A firefly: 1.0%
- 2A Renilla: 1.9%
COC(=O)c1ccc(NC(=O)CSc2ccc(-c3cccs3)nn2)cc1
- 2A firefly: 1.0%
- 2A Renilla: 7.4%

Three entries from above, set out differently.
> Cc1cc(NC(=O)c2cc(-c3ccc(F)cc3)on2)no1
  2A firefly: 1.3%
  2A Renilla: -2.7%
> COC(=O)C1CN(Cc2ccc(F)cc2)CCS(=O)(=O)N1Cc1cn(Cc2ccccc2)nn1 (stereo not given)
  2A firefly: 1.7%
  2A Renilla: 23.0%
> CC(C)NC(=O)C(C)Sc1nnc(NC2CC2)s1 (stereo not given)
  2A firefly: 12.3%
  2A Renilla: 7.4%

Next entries follow:
SMILES	2A firefly	2A Renilla
Cn1c(=O)c2c(nc(N3CCCCC3)n2CC(O)CO)n(C)c1=O (stereo not given)	-10.1%	-6.8%
CC(OC(=O)CC12CC3CC(CC(C3)C1)C2)C(N)=O (stereo not given)	10.6%	14.1%
CCN(C(=O)CSc1nnc(N2CCOCC2)n1-c1cccc(F)c1)C1=CCCCC1	-9.2%	-9.4%
CCCCN(C)C(=O)c1ccc(S(=O)(=O)NCc2ccco2)cc1	6.2%	26.6%
O=C(CSc1nc2ccsc2c(=O)n1-c1ccccc1)NC1CCCC1	4.0%	11.0%
CCOP(=O)(OCC)c1nc(-c2ccc(C)cc2)oc1NCc1ccco1	1.1%	49.8%[activator]
Cc1c(C(=O)Nc2nc(-c3ccc(F)cc3)ns2)oc2ccc(Br)cc12	?	-7.8%
CSc1ccc(CCNC(=O)C2CCN(c3ncnc4c3nc3n4CCCCC3)CC2)cc1	-10.1%	-2.5%
CCOc1ccccc1NC(=O)c1c(NC(=O)COc2ccc(Cl)cc2)sc2c1CCCCC2	-21.0%	-3.8%
O=C(Cc1ccc(F)cc1)NCCc1csc(-c2ccc(C(F)(F)F)cc2)n1	-0.1%	-17.4%
CCCN(C(=O)Cn1nc(Cc2ccncc2)c2ccccc2c1=O)c1ccccc1F	10.0%	25.0%
Cc1cccc(OCCn2c(CN3CCOCC3)nc3scc(-c4cccs4)c3c2=O)c1	5.0%	-0.1%
Cc1occc1-c1nnc(SCc2cc(-c3cccs3)on2)o1	14.8%	0.5%
CC1COC2(c3ccccc3Cl)c3cc(Cl)ccc3NC(=O)CN12 (stereo not given)	-15.1%	-1.1%
CCC1CCCCN1Cc1nc2c(c(=O)n(C)c(=O)n2C)n1CCN1CCOCC1 (stereo not given)	6.4%	-5.5%
CC(=O)N1c2ccc(S(=O)(=O)NCC3CCC(C(=O)NCCC(C)C)CC3)cc2CC1C (stereo not given)	-13.4%	0.3%
O=C(NCCN1CCCCC1)C(=O)Nc1ccc2cc[nH]c2c1	18.3%	-12.6%
O=C(O)C(c1c[nH]c2cc(OCc3ccccc3)ccc12)N1CCN(c2ccc(Cl)cc2)CC1 (stereo not given)	52.3%[activator]	10.1%
CSc1ccccc1C(=O)NCC(C)C	-3.2%	-5.0%
Cc1cc(C)c(Cn2c3ccccc3c3cnn(CC(=O)N4CCCCC4)c(=O)c32)c(C)c1	8.3%	-9.4%
COc1ccccc1OCCSc1nc2ccccc2o1	155.9%[activator]	6.8%
CN1CCN(C(=O)CN(C2CCCCC2)S(=O)(=O)c2ccc(Br)cc2)CC1	-17.3%	13.8%
Cc1oc(-c2ccccc2)nc1Cn1ncc2ccccc2c1=O	5.9%	-11.7%
COc1ccc(OC)c(CNC(=O)c2cnc3c(C)cccn3c2=O)c1	-4.7%	1.1%
O=C(Nc1cc(-c2ccc(Br)cc2)no1)c1ccco1	228.0%[activator]	15.6%

Other records.
SMILES	2A firefly	2A Renilla
CC(NC(=O)c1cc2cc(Br)cc(Br)c2o1)C1CC2CCC1C2 (stereo not given)	21.2%	14.3%
COc1ccccc1NC(=O)C1=C(C)Nc2nc(SCc3ccccc3)nn2C1c1cccs1 (stereo not given)	-9.8%	1.0%
O=C(Nc1ccc(F)c(F)c1)C1CCCN1S(=O)(=O)c1cccc2nsnc12 (stereo not given)	-6.8%	-5.5%
CCOC(=O)Cn1cc(CN2CCS(=O)(=O)N(Cc3ccc(F)cc3)C(C(=O)OC)C2)nn1 (stereo not given)	-3.1%	-17.5%
Cc1c(O)ccc2c(CN3CCN(c4ccc(F)cc4)CC3)cc(=O)oc12	?	?
CC(NCc1ccc(-c2ccccc2)o1)c1ccccc1 (stereo not given)	78.6%[activator]	0.4%
COc1cc(O)cc(O)c1	0.7%	-3.0%
CN(C)CCN(Cc1ccc(Cl)cc1)c1ccccn1	3.9%[11.5 µM]	-1.8%
CCSc1ncc(Cl)c(C(=O)Nc2c(C(=O)Nc3ccc(Cl)cc3)oc3ccccc23)n1	76.6%[activator]	24.8%
COc1ccccc1N=C1NN=C(c2ccc3c(c2)CC(C)N3S(C)(=O)=O)CS1 (stereo not given)	47.0%[activator]	?
Cc1c(NC(=O)C(C)(C)Oc2ccc(Cl)cc2)cccc1-c1nc2ncccc2o1	-5.2%	3.0%
CN(C)S(=O)(=O)c1ccc(=O)n(CC(=O)c2c[nH]c3ccccc23)c1	31.7%[activator]	21.0%
Cc1ccc(C(NC(=O)Cc2cccs2)C(=O)Nc2ccc3c(c2)OCO3)cc1 (stereo not given)	85.9%[activator]	125.2%[activator]
CCc1ccc2nc(N(Cc3cccnc3)C(=O)c3ccc(C#N)cc3)sc2c1	2.6%	-5.7%
O=C(NCc1cccs1)c1ccc(-c2ccccc2)cc1	13.5%	71.1%[activator]
O=C(Cn1nc(C(=O)O)c2ccccc2c1=O)NC(=O)c1ccc(Cl)cc1	-6.9%	-9.3%
COc1ccc2cc(/C=C(\NC(=O)c3ccccc3)C(=O)N3CCCC3)c(Cl)nc2c1	11.8%	37.1%[activator]
CSc1nc2c(c(=O)[nH]c(=O)n2C)n1Cc1ccc(Cl)cc1	1.4%	-1.7%
CCOC(=O)c1c(C)[nH]c(C)c1S(=O)(=O)N(C)CC(=O)N1CCN(c2ccccc2OC)CC1	0.0%	0.0%
COC(=O)C1CN(Cc2ccccc2)CCC1=O (stereo not given)	-0.6%	-10.0%
CNC(=S)NNC(=O)c1cc(F)cc(F)c1	-0.9%	-1.0%
CCOc1ccccc1Nc1nc2c(S(=O)(=O)c3ccc(C)cc3)nnn2c2ccsc12	10.8%&-24.4%	-1.8%&-6.9%
Cc1ccc(CCNC(=O)c2ccc(Cn3c(=O)c4cccn4c4cccnc43)cc2)cc1	-2.9%	5.9%
CCCCn1nnc(NC(=O)COc2ccc(C3CCCCC3)cc2)n1	0.0%	13.6%
CCS(=O)(=O)N1CCCC(C(=O)NCCOC)C1 (stereo not given)	-16.4%	-9.6%

Other results follow:
SMILES	2A firefly	2A Renilla
CCOc1ccc(-c2nnc(SCC(=O)NCCc3ccc(OC)c(OC)c3)nc2-c2ccc(OCC)cc2)cc1	-9.1%	-10.3%
CC(C)NC(=O)N1CCN(S(=O)(=O)c2ccc3c(ccn3C)c2)CC1	3.1%	3.0%
Cc1cc(C)c(NC(=O)C(C)OC(=O)c2ccc3ccccc3n2)c(C)c1 (stereo not given)	-6.4%	-11.6%
CCOc1ccc(CNC(=O)CCn2c(=O)c3cccn3c3ccc(F)cc32)cc1	-8.5%	-8.2%
COc1ccccc1C(=O)CSc1ccccc1Cl	0.0%	29.5%
CCn1c(=O)c2c(nc(-n3nc(C)c(C)c3C)n2C(C)C)n(C)c1=O	-4.0%	-11.3%
CCOc1cccc(OCCn2c(-c3ccc(OC)cc3)nc3ccccc3c2=O)c1	13.2%	-8.5%
Cc1oc(-c2ccccc2)nc1C(=O)NC1CCCCCC1	42.9%[activator]	14.0%
CC(C)(C)N(Cc1cn(CC2CCCCC2)nn1)S(=O)(=O)c1ccccc1Br	-26.4%	-3.6%
Cc1ccn2c(=O)cc(CSc3nnc(NC(=O)c4ccccc4Cl)s3)nc2c1	-13.5%	-7.6%
COc1cccc2sc(NC(=O)c3ccc4c(c3)OCCO4)nc12	94.1%[activator]	-5.4%
Cc1ccccc1NC(=O)c1sc2nc3c(cc2c1N)CN(C(C)C)CC3	?	14.1µM*
CCCNc1c(NS(=O)(=O)c2ccc(Cl)s2)c(=O)oc2ccccc12	6.6%	0.0%
Cc1cccc(OC(C)C(=O)Nc2cc(-c3ccc(F)c(F)c3)no2)c1C (stereo not given)	0.0%	13.3%
CCOc1ccc(Br)cc1C1NC(=O)c2c(sc3c2CCN(C)C3)N1 (stereo not given)	-1.9%	-7.0%
Cc1ccccc1Cn1c(=O)n(CC2CCC(C(=O)N3CCOCC3)CC2)c(=O)c2sccc21 (stereo not given)	1.4%	-11.1%
COC(=O)c1cccc(Nc2nn3c(=O)c4cc5c(cc4nc3s2)OCO5)c1	-15.2%	-3.2%
Cc1ccccc1Nc1nc2c(c(=O)[nH]c(=O)n2C)n1CC(=O)O	-12.7%	-11.3%
COc1cc2c3cc1Oc1cc(ccc1O)C[C@@H]1c4c(cc(OC)c(O)c4Oc4ccc(cc4)C[C@@H]3N(C)CC2)CC[N+]1(C)C	-21.3%[11.5 µM]	-2.7%
Cc1ccc2nc(CSc3nnc(N4CCCC4)n3-c3cccc(Cl)c3)cn2c1	34.1%[activator]	34.1%[activator]
CC(C)OCCCN(C)C1CCN(S(=O)(=O)c2csc(C(N)=O)c2)CC1	-12.3%	1.9%
COc1cc(NC(=O)Cn2ccn(-c3cc(C)cc(C)c3)c(=O)c2=O)cc(OC)c1	-16.9%	-7.1%
Cc1c(C)n(Cc2ccc(Cl)cc2)c2ccc(C(=O)NCCc3ccc(S(N)(=O)=O)cc3)cc12	42.0%[activator]	37.6%[activator]
COc1ccccc1N1CCN(C(=O)c2cc(-c3ccc(F)cc3)on2)CC1	-4.8%	-1.5%
CCN(Cc1ccccc1)C(=O)Cn1c(=O)n(-c2ccccc2)c(=O)c2c1c1cc(C)ccc1n2C	-10.8%	-8.0%
O=C(CCCN1C(=O)NC2(CCCC2)C1=O)Nc1cccc2cccnc12	11.2%	10.0%
CCC(=O)N1c2ccccc2CC1C(=O)NCCCN1CCN(c2ccc(F)cc2)CC1 (stereo not given)	-13.1%	-8.7%
